Source: PubChem (several laboratories)
HSV augment – enhancers of HSV replication in host cells, fold increase, host cell viability; HSV replication augmentation in cells; maximum fold increase; actives 0.005% (n = 220,000); AID 1956, 2009;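 active = peak rise of 1.5-fold or more in the series; tested in PC3 cells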;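 also: first round at 10 µM; read as green reporter fluorescence; hits show the peak of a series up to 25 µM; 1 = signal of infected wells without compound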
GALR2 ag – GALR2 receptor agonists, primary screen, cell-based. actives 0.48% (n = 140,000). activation, %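 (tested at 5 µM)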. AID 803, 2007. GALR2-expressing cells, agonist activation read-out. Galanin receptor type 2 (Homo sapiens), O43603;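 active = above mean plus 3 SD of all compounds, about 5% in these data, not always enough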;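 also: 0% = vehicle buffer wells and 100% = reference agonist at full effect; tested in CHO reporter cells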
Target sequence (O43603 whole entry, looked up): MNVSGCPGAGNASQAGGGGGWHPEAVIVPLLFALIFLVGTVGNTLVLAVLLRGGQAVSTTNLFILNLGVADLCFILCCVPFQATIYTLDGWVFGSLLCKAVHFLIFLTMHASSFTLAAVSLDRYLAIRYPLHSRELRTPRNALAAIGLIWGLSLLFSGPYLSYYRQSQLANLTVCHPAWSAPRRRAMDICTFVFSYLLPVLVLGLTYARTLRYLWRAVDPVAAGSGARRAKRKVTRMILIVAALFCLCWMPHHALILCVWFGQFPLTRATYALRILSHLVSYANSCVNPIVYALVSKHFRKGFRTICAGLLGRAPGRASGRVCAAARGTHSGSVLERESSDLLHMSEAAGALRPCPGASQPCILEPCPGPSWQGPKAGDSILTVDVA
INS promoter inh – inhibitors of insulin promoter-driven GFP, primary screen, imaging, TRM-6 cells (human fetal islet line), eGFP reporter, cell count; reporter expression induced with tamoxifen; inhibition, % at 2 µM; actives 0.9% (n = 130,000); AID 1273, 2008;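 active = inhibition above the mean plus 3 SD, with well images judged a real hit on visual review, cut at about 60% in these data, passing the limit was not always enough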
RGS16-Gao HTS – modulators of RGS16 binding to Galphao, primary screen, biochemical, human proteins, multiplexed bead flow cytometry; Regulator of G-protein signaling 16 (Homo sapiens) + Guanine nucleotide-binding protein …; bead-based flow cytometry RGS16-Galphao binding, fluorescence; actives lie on both sides; binding response (% of control), % at 10 µM; actives 0.38% (n = 220,000); AID 1441, 2008;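 active = below 25% or above 175%, edge rows of some plates excepted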;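 also: Galphao activated by GDP with aluminum fluoride before binding; 100% = wells without compound and 0% = beads without RGS; some results beyond the cut were filed as inactive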
Target sequence (O15492 whole entry, looked up): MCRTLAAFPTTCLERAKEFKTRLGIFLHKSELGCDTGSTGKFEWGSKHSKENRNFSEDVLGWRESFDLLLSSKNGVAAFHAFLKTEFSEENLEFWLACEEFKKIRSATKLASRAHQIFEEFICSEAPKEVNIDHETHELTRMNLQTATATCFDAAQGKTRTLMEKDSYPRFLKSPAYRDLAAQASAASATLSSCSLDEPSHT
Target sequence (P09471 whole entry, looked up): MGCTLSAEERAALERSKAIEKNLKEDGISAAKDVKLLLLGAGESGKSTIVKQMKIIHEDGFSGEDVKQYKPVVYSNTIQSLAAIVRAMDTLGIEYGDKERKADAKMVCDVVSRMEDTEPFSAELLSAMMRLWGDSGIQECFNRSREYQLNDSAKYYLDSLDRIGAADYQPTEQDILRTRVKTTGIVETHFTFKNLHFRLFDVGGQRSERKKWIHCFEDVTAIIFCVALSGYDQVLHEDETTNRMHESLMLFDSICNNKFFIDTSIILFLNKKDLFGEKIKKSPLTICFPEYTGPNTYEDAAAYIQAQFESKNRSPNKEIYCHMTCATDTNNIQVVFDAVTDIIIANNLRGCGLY
PKD1 kinase inh – inhibitors of human PKD1 kinase, biochemical, fluorescence polarization; Serine/threonine-protein kinase D1 (Homo sapiens), Q15139; PKD1 kinase fluorescence polarization assay; inhibition, %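 (about 10 µM by stock and volumes)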; actives 0.056% (n = 200,000);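 active = inhibition of 50% or more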;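 also: controls were vehicle for no effect and a reference inhibitor for full effect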
INS promoter inh cell count – also measured in INS promoter inh; calls as there; normalized cell count, %; measured here: cell count, toxicity; reference of the scale not given here;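 cells exposed to compound for 48 h; stained nuclei by imaging scaled within each plate; lower means fewer cells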
HSV augment primary fold – recorded beside HSV augment, whose call it bears; fold increase; compound at 10 µM; measured here: primary screen fold increase 10 uM; tested in PC3 cells;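 GFP signal in the first replicate; 1 = infected wells without compound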
The depositor's hits bear a star; i = inactive; . = not tested or not shown.

SMILES	HSV augment	HSV augment primary fold	GALR2 ag	INS promoter inh	INS promoter inh cell count	RGS16-Gao HTS	PKD1 kinase inh
CCc1ccc(CC)c(S(=O)(=O)Nc2ccc(C(=O)O)c(O)c2)c1	i	0.99	-1.3	-31	129	99	-6
CC(C)c1ccc(C(=O)N2CCCN(C(=O)c3ccc(C(C)C)cc3)CC2)cc1	i	1	-0.6	14	109	100	-13
Cc1nc2ccccc2nc1OCC(=O)NCc1ccc2c(c1)OCO2	i	1	-2.1	.	.	101	-5
CCC(CC)C(=O)Nc1cccc(/C(C)=N/NC(=O)c2c(Br)cnn2C)c1	i	0.96	-2.4	.	.	39	-1
Cc1ncoc1C(=O)N1CCCC(C(=O)c2ccc3c4c(cccc24)CC3)C1 (stereo unspecified)	i	1.1	.	.	.	96	0
CCOC(=O)NNC(=O)C1CCC(C)CC1 (stereo unspecified)	i	1	.	64	164	99	-4
CCN(c1ccc(NC(=O)COC(=O)c2cc3ccccc3oc2=O)cc1)C(C)C	i	1	.	17	99	105	6
O=C(/C=C\Nc1ccc2c(c1)OCO2)c1cccs1	i	0.97	.	-22	37	107	-5
OC(CN=c1sc2ccccc2n1CC(O)COc1ccccc1)COc1ccccc1 (stereo unspecified)	i	0.5	-2.0	0	67	107	-9
Cc1ccc2c(C)c(C(=O)Nc3cccnc3)oc2c1	i	0.97	0.6	12	294	88	-5
COc1ccc(C(=O)NCC(=O)NCC2COc3ccccc3O2)cc1 (stereo unspecified)	i	1	-1.1	13	99	102	0
Cc1ccc(C)c2[nH]c(=O)c(CN(Cc3ccco3)C(=S)NCC3CCCO3)cc12 (stereo unspecified)	i	1	.	-47	110	103	-7
Cc1ccccc1N1CC(O)(c2ccccc2)[N+]2=C1SCC2 (stereo unspecified)	.	.	0.1	.	.	107	-5
CN(c1ccccc1)S(=O)(=O)c1cccc(NC(=O)Cn2cnc3ccccc3c2=O)c1	i	0.91	-1.4	22	116	103	-5
CCc1[nH]nc2c1C(c1ccsc1)C(C#N)=C(N)O2 (stereo unspecified)	i	0.96	-1.2	62	67	100	0
CC1CN(C(=O)C(C)Sc2nnnn2C)CC(C)O1 (stereo unspecified)	i	1.1	.	-64	187	117	-2
O=C(COC(=O)c1ccccn1)NC1CCCCC1	i	0.92	-1.0	3	86	96	-7
Cc1noc(C)c1C(=O)OCC(=O)Nc1c(F)cccc1F	i	0.95	.	-17	81	107	-2
O=C(c1ccccc1Nc1ccc(SC(F)F)cc1)N1CCCCC1	i	0.92	-1.4	-27	98	103	17
COc1cccc(-n2nnc3c(=O)n(C/C=C/c4ccccc4)cnc32)c1	i	1	-3.7	.	.	106	-4
O=C(CSc1nnc(COc2ccc(Cl)cc2)n1Cc1ccco1)c1ccccc1F	i	0.93	-2.6	-36	37	138	-2
COc1ccc(C(=O)NN(C)c2nc(-c3ccccc3)nnc2C(F)(F)F)cc1	.	.	-1.3	.	.	102	-10
C=CCSc1ncc(CO)n1Cc1ccccc1	i	1	.	-44	102	97	3
CCn1nnc(NC(=O)COc2cc(C)ccc2C(C)C)n1	i	1.1	-0.9	-36	203	129	-10
CN(c1ccccc1C(=O)N1CCN(Cc2ccc3c(c2)OCO3)CC1)S(C)(=O)=O	i	0.9	.	-35	63	104	-4
C/C(=N/OC(=O)c1c(-c2c(F)cccc2Cl)noc1C)c1cnccn1	i	1	.	.	.	97	2
Cc1nn(CC(=O)Nc2ccc(C(C)C)cc2)c(C)c1[N+](=O)[O-]	i	0.87	.	-26	110	100	-3
Cc1cc(C(=O)N/N=C/c2ccc(OCc3ccccc3)cc2)c(C)o1	i	0.81	.	.	.	73	-4
O=C1/C(=C\c2ccccc2)CCc2c1[nH]c1ccccc21	i	0.51	-3.4	6	89	101	2
Fc1ccc(-n2c(-c3ccc4ccccc4n3)n[nH]c2=S)cc1Cl	i	1.1	.	.	.	95	-2
Cc1ccc(C(=O)NC(=S)Nc2cccc3c(C)cc(C)nc23)cc1	i	0.82	-2.0	20	119	118	2
CC(C)Oc1ccc(C(=O)NC2=NCCS2)cc1	i	0.9	.	40	143	90	-5
CCc1nnc(NC(=O)C(CC)CC)s1	i	0.93	.	.	.	94	.
CCN1CCN(CCCNC(=O)C(=O)c2c(C)[nH]c3ccccc23)CC1	i	0.92	.	.	.	101	-3
O=C(Nc1ccc(O)cc1)/C(=C\C=C\c1ccccc1)NC(=O)c1ccccc1	i	0.87	.	.	.	104	.
Cc1ncc(CN2CCC(CO)(Cc3ccccc3)CC2)s1	i	1	.	.	.	104	-3
O=C(/C=C(\O)c1ccc(Cl)cc1)C(=O)NNC(=O)C(O)(c1ccccc1)c1ccccc1	i	0.95	-2.2	18	188	100	-3
Cc1ccnc(SCc2nc3ccccc3s2)n1	i	1	-1.2	8	108	108	-2
COc1ccc(/C=C(\C#N)C(=O)NCC2CCCO2)cc1OC (stereo unspecified)	i	1	-1.1	.	.	98	4
O=C(CN1CCOCC1)Nc1ncc(Cc2cccc3ccccc23)s1	i	0.88	-3.6	-29	120	104	-11

A different layout for some results above.
| SMILES | HSV augment | HSV augment primary fold | GALR2 ag | INS promoter inh | INS promoter inh cell count | RGS16-Gao HTS | PKD1 kinase inh |
| --- | --- | --- | --- | --- | --- | --- | --- |
| CN(c1ccccc1C(=O)N1CCN(Cc2ccc3c(c2)OCO3)CC1)S(C)(=O)=O | i | 0.9 | . | -35 | 63 | 104 | -4 |
| C/C(=N/OC(=O)c1c(-c2c(F)cccc2Cl)noc1C)c1cnccn1 | i | 1 | . | . | . | 97 | 2 |

The list goes on:
SMILES	HSV augment	HSV augment primary fold	GALR2 ag	INS promoter inh	INS promoter inh cell count	RGS16-Gao HTS	PKD1 kinase inh
CCOC(=O)c1c(-c2ccccc2)nc2ccc(C)cn12	i	0.91	0.9	18	78	98	-3
O=C(NCc1nc2ccccc2[nH]1)c1ccccc1F	i	0.95	.	.	.	99	.
O=C(CNC(=O)c1ccc(S(=O)(=O)N2CCCC2)cc1)N/N=C/c1ccc(F)cc1	i	0.98	.	-44	168	103	-1
O=C(O)c1cc(-c2ccccc2)on1	i	0.85	-0.4	14	103	106	-6
COc1ccc(C(=O)N[C@H](C(=O)N2CCN(c3ccccc3F)CC2)C(C)C)cc1	i	0.99	.	28	97	100	5
CC(C)c1ccc2oc(-c3cc(N)ccc3O)nc2c1	i	0.62	0.2	.	.	114	-12
CC(=O)N/N=c1\sc2ccccc2n1C	i	1	.	-20	110	95	-4
CCn1c(=O)cc(OCC(=O)N2CCN(C(=O)c3ccco3)CC2)c2ccccc21	i	0.88	-1.1	23	94	104	1
Nn1c(=O)[nH]c2c([nH]c3ccccc32)c1=O	i	1.1	.	64	77	112	-3
COc1ccc(/C(N)=N/OC(=O)c2cccs2)cc1OC	i	0.88	.	-100	115	105	0
O=S(=O)(/N=C(/Nc1ccc(F)c(F)c1F)c1ccccc1)c1ccccc1	i	1	-2.2	-6	54	102	2
C=CCn1c(CCC(=O)O)ccc1-c1ccccc1	i	1	-0.5	-45	50	95	0
O=C(CN1C(=O)c2cccc3cccc1c23)NCc1ccncc1	i	0.85	-0.3	0	80	107	3
CC(=O)Nc1cccc(NC(=O)CSc2ccc(-c3ccccn3)nn2)c1	i	0.74	.	-17	153	97	-4
O=C(CSc1nnc2ccccn12)Nc1ccccc1C(=O)NC1CC1	i	1	-1.4	-86	91	103	3
COCCn1c(C)cc(C2=NNC(=Nc3ccccc3)SC2)c1C	i	1.2	-1.4	-11	65	97	0
O=C(NNc1c(Cl)cccc1Cl)C1CCC1	i	0.94	.	.	.	100	.
O=C(NNC(=S)Nc1cccc(Cl)c1)c1ccccc1OC(F)F	i	0.9	-1.3	12	108	126	-10
Cn1cc(CN2CCCC(CO)(Cc3ccccc3)C2)cn1 (stereo unspecified)	i	0.86	.	7	123	116	4
Cc1ccc(-c2nnc(SCC(=O)NC(=O)Nc3ccc(C)cc3C)n2N)cc1	i	0.94	0.8	.	.	98	4
CCCC[C@@H]1CNC(=S)N1CCCC	i	0.8	.	.	.	103	-2
Cc1cc(-n2c(C)cc(C(=O)COc3ccccc3[N+](=O)[O-])c2C)no1	i	0.96	.	.	.	95	5
CN(C)S(=O)(=O)c1ccc2nc(NC(=O)c3cccnc3)sc2c1	i	0.96	-1.1	-43	119	92	-2
CCOC(=O)C1CCCN1C(=O)c1ccc(OC)c(Br)c1 (stereo unspecified)	i	1.1	.	.	.	105	-11
O=c1[nH]c(CN2CCN(S(=O)(=O)/C=C/c3ccccc3)CC2)nc2cc(Cl)ccc12	i	0.78	.	.	.	98	.
CN(CCc1cn[nH]c1)Cc1nc(C(c2ccccc2)c2ccccc2)no1	i	1.1	.	-17	54	111	-6
CCN(CC)S(=O)(=O)c1cc(Cl)ccc1OC	i	1	.	-48	73	98	-7
CCOC(=O)CCC(NC(=O)c1ccc(NCN2C(=O)CCC2=O)cc1)C(=O)OCC (stereo unspecified)	i	1	-0.6	-224	97	91	-7
Cc1ccccc1OCC(=O)NCCC(=O)O	i	1	-1.6	-61	125	104	-4
COc1ccc(NC(=O)CSc2ncnc3c2cnn3Cc2ccccc2)cc1OC	i	0.8	-1.1	45	88	102	-2
CCCCn1nc2cc(C(=O)NCCc3ccc(C)cc3)ccc2c1OCC	i	0.82	-2.0	.	.	100	-6
CC(=O)N1CCN(c2ccnc3cc(Cl)ccc23)CC1	i	1.1	.	.	.	105	.
CCNC(=O)C(Cc1ccccc1)NC(=O)OCc1ccccc1 (stereo unspecified)	i	1	.	-57	85	101	2
CCC1(C)OC(=O)N(CCCn2ccnc2C)C1(C)O (stereo unspecified)	i	0.76	0.3	3	181	114	-4
C[N+](C)(C)CCOC(=O)C1(c2ccccc2)CCCC1	i	0.88	-3.3	7	87	108	3
Cn1cc(C(N)=O)c2ccccc21	i	1	.	.	.	103	-3
CCN(C(=O)C(C)OC(=O)C1C(C(=O)OC)=C(C)NC(C)=C1C(=O)OC)c1ccccc1 (stereo unspecified)	i	0.91	.	12	102	107	0
COc1ccc(C(=O)O)cc1S(=O)(=O)N(C)C	i	0.95	.	33	124	101	-3
COc1ccc(NC(=S)N2CCN(C/C=C/c3ccccc3)CC2)cc1OC	i	0.94	-3.4	-42	107	97	5
CC(C#N)Sc1ncnc2sc3c(c12)CCC3 (stereo unspecified)	i	0.89	-2.8	.	.	237	2
Brc1ccc(-n2c(SCc3nc4ccccc4[nH]3)nnc2-c2ccncc2)cc1	i	0.94	-0.7	-35	108	98	2
O=C(c1cn(-c2ccccc2)nc1-c1ccc(Br)cc1)N1CCOCC1	.	.	-0.9	-50	108	108	-1
Cc1ccc(C2NNC(=O)C2NC(=O)c2ccccc2)cc1 (stereo unspecified)	i	0.97	-0.4	0	77	95	1
Cc1ccc2cc(C(c3nnnn3C3CCCC3)N(Cc3ccccc3)Cc3ccco3)c(=O)[nH]c2c1 (stereo unspecified)	i	0.99	-2.0	-21	111	100	-21
O=C(O)CSc1nc(-c2ccccc2)nc2c1oc1ccccc12	i	0.82	-1.0	-50	96	109	1
Cc1nnc(C)n1/N=C/c1ccc(-c2ccccc2)cc1	i	0.98	-3.2	11	160	89	-7
COc1ccc(NCC(=O)N/N=C(\C)c2cc3ccccc3o2)cc1	i	0.85	.	6	85	96	6

In the list so far, 12 contain an aryl thioether with sulfur outside any ring.
SMILES	HSV augment	HSV augment primary fold	GALR2 ag	INS promoter inh	INS promoter inh cell count	RGS16-Gao HTS	PKD1 kinase inh
CC1CN(C(=O)C(C)Sc2nnnn2C)CC(C)O1 (stereo unspecified)	i	1.1	.	-64	187	117	-2
O=C(c1ccccc1Nc1ccc(SC(F)F)cc1)N1CCCCC1	i	0.92	-1.4	-27	98	103	17
O=C(CSc1nnc(COc2ccc(Cl)cc2)n1Cc1ccco1)c1ccccc1F	i	0.93	-2.6	-36	37	138	-2
C=CCSc1ncc(CO)n1Cc1ccccc1	i	1	.	-44	102	97	3
Cc1ccnc(SCc2nc3ccccc3s2)n1	i	1	-1.2	8	108	108	-2
CC(=O)Nc1cccc(NC(=O)CSc2ccc(-c3ccccn3)nn2)c1	i	0.74	.	-17	153	97	-4
O=C(CSc1nnc2ccccn12)Nc1ccccc1C(=O)NC1CC1	i	1	-1.4	-86	91	103	3
Cc1ccc(-c2nnc(SCC(=O)NC(=O)Nc3ccc(C)cc3C)n2N)cc1	i	0.94	0.8	.	.	98	4
COc1ccc(NC(=O)CSc2ncnc3c2cnn3Cc2ccccc2)cc1OC	i	0.8	-1.1	45	88	102	-2
CC(C#N)Sc1ncnc2sc3c(c12)CCC3 (stereo unspecified)	i	0.89	-2.8	.	.	237	2
Brc1ccc(-n2c(SCc3nc4ccccc4[nH]3)nnc2-c2ccncc2)cc1	i	0.94	-0.7	-35	108	98	2
O=C(O)CSc1nc(-c2ccccc2)nc2c1oc1ccccc12	i	0.82	-1.0	-50	96	109	1
